Vaccinia pol inh – vaccinia E9 polymerase processive synthesis inhibition; in vitro processive DNA synthesis, absorbance read-out; active compounds read low; some inactives read as strong as hits; normalized absorbance, % (no concentration beside the values); 46,000 compounds, 0.94% hits; AID 493162;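 active = replicate mean up to 90% and picked by the depositor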;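 also: 100% = median of the test wells of a plate; 100 nL library stock went into each well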
* marks the source's active call; other numbers are inactive results. Only part of the results is shown (hit frequency here may not be typical).

SMILES | Vaccinia pol inh
CC1=C(C(=O)OC2CCCN(C)C2)C2(O)C(=O)c3ccccc3C2(O)N1 (stereo unspecified) | 111
Cc1ccc(C(=O)NC(NCc2ccco2)(C(F)(F)F)C(F)(F)F)cc1 | 85
CC(C)(C)CC(C)(C)c1ccc(O)c(Cc2ccc(Cl)cc2Cl)c1 | 100
CC1CC(c2ccccc2)n2ncnc2N1 (stereo unspecified) | 91
Cc1ccc2oc(=O)c3cc(C(=O)NCc4cccs4)sc3c2c1 | 100
Cc1ccc(N=C2SCC(=O)N2C)cc1 | 100
CCC(Cc1ccccc1)NC(=O)c1ccc2c(c1)NC(=O)c1ccccc1S2 (stereo unspecified) | 104
CCOC(=O)c1c(S(=O)(=O)Nc2ccc(Cl)cc2)c(C)n(-c2ccccc2)c1C | 101
COc1ccc(-c2cc(C)nc(SCC(=O)Nc3ccccc3)n2)cc1 | 93
Cc1ccc(/C=N/n2cnnc2)c(C)c1 | 88
Cc1cnc(C(=O)NC(C)CCc2ccccc2)cn1 (stereo unspecified) | 100
COC(=O)C1=C(NC(=O)c2ccccc2C)CCS1 | 101
O=C(CSc1nccn1-c1ccccc1)Nc1ccccc1F | 104
COc1ccc(NS(=O)(=O)c2ccc(N)cc2)nn1 | 100
Cc1c(Cl)cccc1N1CC(C(=O)O)CC1=O (stereo unspecified) | 101
CC(C)(C)NC(=O)c1ccc2ccccc2n1 | 103
CCOC(=O)c1cnn(-c2nc(C)cc(C)n2)c1N | 100
c1ccc(Cn2ncc3c(Nc4ccc5ccccc5c4)ncnc32)cc1 | 100
Cc1ccc(CCNC(=O)NC(C)(C)C)cc1 | 100
O=C1C[C@H](NC(=O)OCc2ccccc2)CO1 | 100

For convenience, part of the list above.
SMILES | Vaccinia pol inh
CC(C)(C)CC(C)(C)c1ccc(O)c(Cc2ccc(Cl)cc2Cl)c1 | 100
CC1CC(c2ccccc2)n2ncnc2N1 (stereo unspecified) | 91
Cc1ccc2oc(=O)c3cc(C(=O)NCc4cccs4)sc3c2c1 | 100
Cc1ccc(N=C2SCC(=O)N2C)cc1 | 100
CCC(Cc1ccccc1)NC(=O)c1ccc2c(c1)NC(=O)c1ccccc1S2 (stereo unspecified) | 104
CCOC(=O)c1c(S(=O)(=O)Nc2ccc(Cl)cc2)c(C)n(-c2ccccc2)c1C | 101
COc1ccc(-c2cc(C)nc(SCC(=O)Nc3ccccc3)n2)cc1 | 93
Cc1ccc(/C=N/n2cnnc2)c(C)c1 | 88
Cc1cnc(C(=O)NC(C)CCc2ccccc2)cn1 (stereo unspecified) | 100
COC(=O)C1=C(NC(=O)c2ccccc2C)CCS1 | 101
O=C(CSc1nccn1-c1ccccc1)Nc1ccccc1F | 104
COc1ccc(NS(=O)(=O)c2ccc(N)cc2)nn1 | 100
Cc1c(Cl)cccc1N1CC(C(=O)O)CC1=O (stereo unspecified) | 101
CC(C)(C)NC(=O)c1ccc2ccccc2n1 | 103
CCOC(=O)c1cnn(-c2nc(C)cc(C)n2)c1N | 100
c1ccc(Cn2ncc3c(Nc4ccc5ccccc5c4)ncnc32)cc1 | 100
Cc1ccc(CCNC(=O)NC(C)(C)C)cc1 | 100
O=C1C[C@H](NC(=O)OCc2ccccc2)CO1 | 100

The results go on.
SMILES | Vaccinia pol inh
c1ccc(CN2CCN(Cc3ccncc3)CC2)cc1 | 107
CCCc1nnc(/N=C/c2cc(-c3ccccc3)oc2O)s1 | 100
Cc1cccc(C)c1N=C1Oc2ccccc2N(C(=O)C(F)(F)F)C1(C)c1ccccn1 (stereo unspecified) | 90
CC1(C)CC(=O)C(C=Nc2ccc(OC(F)(F)F)cc2)=C(O)C1 | 123
O=C(O)CSC1=CC(=O)N(c2cccc(Cl)c2)C1=O | 99
COc1ccccc1C(=O)Nc1nnc(SCc2cccc(F)c2)s1 | 100
O=C(Cn1cnc2ccccc21)c1ccc(Cl)cc1 | 106
O=C(COC(=O)C1CC1)NCc1ccc(Cl)cc1 | 102
COC(=O)c1cc(-c2cccnc2)nc2ccccc12 | 96
COc1ccc(C(=O)CSc2nc3ccccc3c(=O)n2-c2ccc(C)cc2)cc1 | 96
CCC(C)Nc1ncnc2c1cnn2Cc1ccc(Cl)cc1 (stereo unspecified) | 77
O=c1cc(C23CC4CC(CC(C4)C2)C3)[nH][nH]1 | 89
O=C(Cn1c(=O)n2nc(-c3ccccc3)nc2c2ccccc21)c1ccc(Br)cc1 | 104
COC(=O)c1ccc(-c2nc(-c3ccccc3)cs2)cc1 | 103
OCCNC12CC3CC(CC(C3)C1)C2 | 101
COC(=O)c1ccc(OC(=O)COC(=O)CN2C(=O)c3ccccc3C2=O)cc1 | 101
C=CCN(CC=C)Cc1c(C)[nH]c2ccccc2c1=O | 91
CC(=O)NC1=NC(=O)CS1 | 102
c1ccc(CSc2nnc3n(CCOc4ccccc4)c4ccccc4n23)cc1 | 104
CCSC1=C(C#N)C(c2ccc(Cl)cc2)C(C(=O)OC(C)(C)C)=C(C)N1 (stereo unspecified) | 100
CCOC(=O)Cc1csc(-c2ncc(C(F)(F)F)cc2Cl)n1 | 101
O=C(CCCCl)Nc1nc(-c2cccs2)cs1 | 106
CC(C)(O)[C@H]1O[C@H]2CC[C@@]3(C)[C@@](O)(CC[C@H]4Cc5c([nH]c6ccccc56)[C@@]43C)C2=CC1=O | 99
OCc1nc2ccccc2n1CCc1ccccc1 | 101
COC(=O)C1CCN(C(=O)c2ccc(OC)cc2)CC1 | 93
O=C(COC(=O)Cc1ccccc1F)NC(c1ccccc1)c1ccccc1 | 106
O=C1CSC(C23CC4CC(CC(C4)C2)C3)N1 (stereo unspecified) | 93
O=C(Nc1ccccc1)Nc1ccc(-n2ccc(C(F)(F)F)n2)cc1 | 110
O=C(O)C12CC3CC(CC(C3)C1)C2 | 108
Cc1ccc(-n2nc3c(c2NC(=O)CCC2CCCC2)CSC3)cc1 | 100
COC(=O)c1c2c(n3ccccc13)C(=O)c1ccccc1C2=O | 62*
CC(C)(CSc1ccccn1)NS(=O)(=O)c1ccc(Cl)cc1 | 101
Fc1ccccc1N1CCN(CCCNc2nc(=S)[nH]c3ccccc23)CC1 | 97
Cc1cc2cc(CNC(=O)C3CC3)ccc2[nH]1 | 100
COc1ccc(-c2cc(SCCN3CCOCC3)c(C#N)c(-c3ccccc3)n2)cc1 | 100
C/C(=C\c1ccc(C(=O)O)cc1)c1ccc2c(c1)C(C)(C)CCC2(C)C | 101
CC(C)(C)c1ccc(C(=O)OCC(=O)Nc2ccc(C#N)cc2)cc1 | 98
CC(=O)N1CCC(N(CCC(C)C)C(=O)Nc2ccccc2)CC1 | 84
CC(Sc1nc(-c2ccccc2)cc(C(F)(F)F)n1)C(=O)N1CCCCC1 (stereo unspecified) | 98
Cc1cc(Br)ccc1NC(=O)c1ccccn1 | 96
CC(C)N(Cc1cccs1)C(=O)[C@H]1[C@@H]2C[C@@H]3[C@H]1C(=O)O[C@@H]3C2 | 102
N#Cc1c(-c2cccs2)cc(C(F)(F)F)[nH]c1=S | 100
O=C(Nc1ccccc1C(F)(F)F)c1cnc2ccccn2c1=O | 103
COCCn1c(NN)nc2ccsc2c1=O | 103
O=C(c1ccccc1NS(=O)(=O)c1ccc(F)cc1)N1CCCC1 | 101
CN(C1CCCCC1)C1CCN(C(=S)Nc2cc(F)cc(F)c2)CC1 | 110
O=C(O)CC[n+]1ccc(-c2cc[n+](CCC(=O)O)cc2)cc1 | 99
Cc1cc2n(n1)C(c1ccccc1)CC(c1ccccc1)=N2 (stereo unspecified) | 100
CCC(CO)N=Cc1c(O)n(-c2ccccc2F)c(=O)c2ccccc12 (stereo unspecified) | 89
COC(=O)c1ccc(CSc2nc3ccccc3c(=O)[nH]2)cc1 | 99
Remaining list, next part
SMILES | Vaccinia pol inh
COc1cccc(NC(=O)CSC2=C(C#N)C(c3ccccc3F)C3=C(CCCC3=O)N2)c1 (stereo unspecified) | 113
Cn1c(=O)[nH]c(=O)c2c1ncn2Cc1ccc(F)cc1 | 100
CCOC(=O)C1CCN(C(=O)C2Cc3ccccc3N2C(=O)OCc2ccccc2)CC1 (stereo unspecified) | 103
Cc1ccc(C2=NC(C(F)(F)F)(C(F)(F)F)N=C3SCCN32)cc1 | 94
CC(C)(C)C(=O)NCCCc1nc2ccccc2[nH]1 | 100
COc1ccc(CNC(=O)c2cc(Nc3ccccc3OC)nc3ccccc23)cc1 | 102
O=C(O)CSc1c2c(nc3cc(C(=O)Nc4ccc(F)c(Cl)c4)ccc13)CCCC2 | 98
O=C(O)CCSc1nc2ccccc2n1C1CCCCC1 | 99
CCc1ccc(OCCCC(=O)Nc2ncn[nH]2)cc1 | 101
COC(=O)c1ccccc1S(=O)(=O)NC(=O)c1ccccc1 | 103
O=C(/C=C/c1cn(-c2ccccc2)nc1-c1cccs1)NC1CCC(O)CC1 (stereo unspecified) | 92
O=C(NCc1cccnc1)C1=CCN(S(=O)(=O)c2ccccc2)CC1 | 93
Cc1ccc(S(=O)(=O)NCCc2csc(C)n2)cc1 | 103
O=C(CSc1ncn[nH]1)Nc1ccccc1 | 100
CCOC(=O)c1csc(NC(=O)c2ccccc2)n1 | 103
CCn1c2ccccc2c2cc(C=Nc3cccc(C#N)c3)ccc21 | 77*
CC1(C)CC(=O)C(CC2=C(O)CC(C)(C)CC2=O)=C(O)C1 | 96
O=C(CC1CCC1)Nc1ccc(Oc2ccccc2)cc1 | 96
CC1CCCCN1S(=O)(=O)c1ccc(Cl)cc1 (stereo unspecified) | 100
C=CCn1c(=NC(=O)/C=C/c2ccccc2)sc2cc(S(N)(=O)=O)ccc21 | 107
Cc1c(C#N)c2ccccc2n1CC(=O)N1CCCCC1C (stereo unspecified) | 102
CCCC(=O)NCCc1cc2cc(C)c(C)cc2[nH]c1=O | 100
O=C(CCC1CC(=O)Nc2ccccc21)NCc1ccccc1 (stereo unspecified) | 84
CCN(CC)c1ccc(NC(=O)CSC(=O)c2ccccc2)cc1 | 100
Cc1ccc2c(c1)CCCN2C(=O)c1scc(S(=O)(=O)c2ccc(Cl)cc2)c1C | 95
COc1ccc2c(c1)/C(=C/c1c(O)n(C)c(=O)c3ccccc13)C=N2 | 100
C=CCNc1nc(Nc2ccc(-c3nc4ccccc4o3)cc2)nc(OCC)n1 | 101
COc1ccc(CCNC(=O)c2cc3c(=O)n(C)c4ccccc4c3n2C)cc1OC | 104
CC1=C(C(=O)OCc2ccccc2)C(/C=C/c2ccccc2)N2C(=O)CCSC2=N1 (stereo unspecified) | 100
Cn1nc(C(=O)NCCN2CCC(Cc3ccccc3)CC2)c2c1-c1ccccc1OC2 | 95
NS(=O)(=O)c1ccc(N=Cc2c3ccccc3cc3ccccc23)cc1 | 94
CC(c1ccco1)N(C(=O)c1ccc(F)cc1)c1ccccn1 (stereo unspecified) | 106
O=C(COc1ccccc1)N1CCc2ccccc21 | 97
NC(=O)c1ccc[n+]([C@@H]2O[C@H](COP(=O)([O-])OP(=O)(O)OC[C@H]3O[C@@H](n4cnc5c(N)ncnc54)[C@H](OP(=O)(O)O)[C@@H]3O)[C@@H](O)[C@H]2O)c1 | 100
CCc1ccc(C(=O)Nc2nnn(CC)n2)cc1 | 90
Cc1nc(Sc2ccccc2)c2oc3ccccc3c2n1 | 101
O=C(Cc1nc2ccccc2o1)c1cccnc1 | 104
CCOc1ccc(NC(=O)c2cc3ccccc3o2)cc1 | 100
Cc1cc(C)cc(Oc2coc3cc(O)ccc3c2=O)c1 | 100
Cc1ccc2c(nc3s/c(=C\c4ccc(-c5ccccc5F)o4)c(=O)n32)c1C | 101
Cc1ccc2nc(C)cc(C(=O)OCC(=O)C(C)(C)C)c2c1 | 96
O=C(NCC1CCCO1)c1ccc(CS(=O)(=O)c2ccc(Cl)cc2)o1 (stereo unspecified) | 104
CSC(=Nc1ccc(Cl)cc1)N(C)C | 104
Nc1cc(=O)[nH]c(SCC(=O)NC2CCCCC2)n1 | 100
O=C1CC(c2ccccc2)N=C(SCC(=O)Nc2ccccc2)N1 (stereo unspecified) | 99
C=C(C)Cn1c(CCNC(=O)CCC)nc2ccccc21 | 102
CC(C)(C)C(=O)COC(=O)c1sc2ccccc2c1Cl | 104
CC1(C)CC(NS(=O)(=O)c2ccc(F)cc2)CC(C)(C)N1 | 95
O=C(CCN1C(=O)c2ccccc2S1(=O)=O)Nc1cccc(C(=O)O)c1 | 99
Cc1cccc(NC(=O)CSc2nc3c(cc2C#N)C(=O)CC(C)(C)C3)c1 | 100
The list continues:
SMILES | Vaccinia pol inh
Cc1nc2c(ccc3nc(NC(=O)c4ccco4)sc32)s1 | 97
CSc1ncccc1C1=N/C(=C\N(C)C)C(=O)O1 | 95
O=C(c1cc(-c2ccc(F)cc2)no1)N1CCN(c2cccc(Cl)c2)CC1 | 104
O=c1c2ccccc2n2nncc2n1Cc1cccc(F)c1 | 113
CSc1ccccc1N1C(=O)CC(Sc2ccccc2C(=O)O)C1=O (stereo unspecified) | 100
COc1cccc(/C=C(/C(=O)OCC(N)=O)c2ccccc2)c1 | 102
CC1(C)C2CC[C@]3(C)C(C(=O)C=C4[C@@H]5C[C@@](C)(C(=O)O)CC[C@]5(C)CC[C@]43C)[C@@]2(C)CC[C@@H]1OC(=O)CCC(=O)O (stereo partly specified) | 98
COc1ccc(CN2COc3ccc(OC)cc3C2)cc1 | 98
Cc1ccc(CNC(=O)c2ccc(N3CCCS3(=O)=O)cc2)cc1 | 104
CC1CCCN(C(=O)COC(=O)COc2ccc(Cl)cc2)C1 (stereo unspecified) | 108
CCOC(=O)c1sc2nc(SCC(=O)C(C)(C)C)n(Cc3ccccc3Cl)c(=O)c2c1C | 101
O=C(/C=C/c1ccco1)Nc1cccc(NC(=O)/C=C/c2ccco2)n1 | 85*
COc1ccc(C(=O)CC2(O)C(=O)N(CN3CCOCC3)c3ccc(Br)cc32)cc1 (stereo unspecified) | 105
CCn1cc(CCCC(=O)O)c2ccccc21 | 104
COc1ccc(Oc2ncccc2NC(=O)c2ccc(OC)cc2)cc1 | 113
CCN(CC)C(=O)c1cnn(-c2ccccc2)c1NC(=O)c1ccco1 | 100
CCOC(=O)c1cc(-c2ccc(C)cc2)n(CC(=O)NCC2CCCO2)c1C (stereo unspecified) | 102
CCCCn1c(CCNC(=O)c2ccc(Cl)cc2)nc2ccccc21 | 102

Assay outcomes from PubChem BioAssay.
